Bioassay records (PubChem)
TNAP inh noacc: human TNAP enzyme inhibitors, primary screen, biochemical, luminescent, no phosphate acceptor, uHTS; Alkaline phosphatase, tissue-nonspecific isozyme (Homo sapiens), P05186; purified TNAP, CDP-star luminescence, 30 min; inhibition, % at 20 µM; 0.26% of 200,000 active; AID 1012, 2008;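 active = tissue-nonspecific alkaline phosphatase inhibition above about 50% at 20 µM in the single-dose screen, limit read from the data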;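 note: 0% = DMSO negative control and 100% = EDTA positive control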
Target sequence (P05186 whole entry, looked up): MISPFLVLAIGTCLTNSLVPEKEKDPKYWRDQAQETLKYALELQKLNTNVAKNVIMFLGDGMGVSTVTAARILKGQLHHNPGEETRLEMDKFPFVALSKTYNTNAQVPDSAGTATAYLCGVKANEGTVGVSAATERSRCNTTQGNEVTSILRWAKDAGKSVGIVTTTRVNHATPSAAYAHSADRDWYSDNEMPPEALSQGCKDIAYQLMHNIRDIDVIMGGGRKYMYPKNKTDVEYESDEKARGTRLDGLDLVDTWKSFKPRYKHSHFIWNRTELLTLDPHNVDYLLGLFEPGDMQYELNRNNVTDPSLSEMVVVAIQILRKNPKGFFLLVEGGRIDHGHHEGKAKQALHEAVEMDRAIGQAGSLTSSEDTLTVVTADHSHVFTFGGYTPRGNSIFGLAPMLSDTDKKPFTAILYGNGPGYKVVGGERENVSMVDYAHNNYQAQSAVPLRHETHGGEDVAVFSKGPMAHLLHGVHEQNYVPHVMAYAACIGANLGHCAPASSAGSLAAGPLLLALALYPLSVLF
APP 5'UTR act: activators of APP 5'UTR luciferase reporter, primary screen, SH-SY5Y cells | AID 1276, 2008 | SH-SY5Y APP 5'UTR luciferase reporter, luminescence; zero percent = DMSO vehicle wells | 1% of 190,000 active | activation, % at 2 µM;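 active = activation above a set limit, based on mean plus 3 SD of controls, cut at about 140% in these data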; note: values of inactives mirror those of a sister screen read the other way
TNAP inh hi DEA: human TNAP enzyme inhibitors, primary screen, biochemical, luminescent, high phosphate acceptor level, uHTS | Alkaline phosphatase, tissue-nonspecific isozyme (Homo sapiens), P05186 | purified TNAP, CDP-star luminescence, 1 M DEA | inhibition, % at 20 µM | 0.03% of 200,000 active | AID 1135, 2008;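 active = over 50% inhibition of tissue-nonspecific alkaline phosphatase at 20 µM in the single-dose screen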;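 note: plate controls were DMSO wells for no effect and EDTA-quenched wells as full inhibition for full effect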
bIAP activator: bovine intestinal alkaline phosphatase activators, primary screen, biochemical, bovine IAP, CDP-star luminescence; alkaline phosphatase, intestinal [Bos taurus]; purified bovine IAP, 30 min; active compounds read high; fold of DMSO-control signal, blank-subtracted; activation factor at 20 µM; 0.17% of 200,000 active;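 active = activation factor of 2 or more at 20 µM, a signal rise over negative controls twice the positive control's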
TNAP act hiacc: TNAP activators at high phosphate acceptor level, primary screen, biochemical, luminescence, uHTS | Alkaline phosphatase, tissue-nonspecific isozyme (Homo sapiens), P05186 | purified TNAP, CDP-star luminescence, 1 M DEA, 30 min; active compounds read high; 0 = EDTA background, 1 = DMSO-only activity | activation factor at 20 µM | 200,000 tested, under 10 active | AID 1136, 2008;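 active = activation factor at least 2 at 20 µM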
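Dosing: 20 µM single point. System: human TNAP. Amount: TNAP 1/800 final. Incubation: 30 min, room temperature. Read-out: TNAP activation factor scaled between EDTA and DMSO control wells. Signal: luminescence from CDP-star hydrolysis. Medium: 1 M DEA, pH 9.8, Mg2+, Zn2+. Control set: EDTA negative control, DMSO positive control.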
Numbers without * were called inactive; . = no result given. An excerpt; rates above refer to the full screens.

Results follow in this order: TNAP act hiacc, bIAP activator, APP 5'UTR act, TNAP inh hi DEA, TNAP inh noacc
1: C[C@]12CC[C@@H](O)C[C@@H]1CC[C@@H]1[C@@H]2CC[C@]2(C)C(=O)CC[C@@H]12
    1.1, 1.1, 8.2, -5.5, -9.6
2: CN1CCc2nc3sc(C(=O)NC(C)(C)C)c(N)c3cc2C1
    1, 1, -6.9, -1.1, -13.1
3: COc1ccccc1CCNCc1cc2c(cc1[N+](=O)[O-])OCO2
    1, 0.8, -10.9, -4.4, -13.3
4: O=C1CC(N2CC=C(c3ccc(F)cc3)CC2)C(=O)N1c1ccc(F)cc1 (centres undefined)
    1.1, 1, 8.0, -5.3, -13.2
5: CC1=C(C(=O)Nc2ccccc2)SCCO1
    1.1, 0.9, 14.4, -5.4, -13.6
6: CCOC(=O)c1cncn1[C@H](C)c1ccccc1
    1, 1.1, ., -3.9, -4.1
7: C[N+]1(C)C2CCC1CC(OC(=O)C(CO)c1ccccc1)C2 (centres undefined)
    1, 0.9, 7.1, -2.0, -6.5
8: C=CCN1CC[C@]23c4c5ccc(O)c4O[C@H]2C(=O)CC[C@@]3(O)[C@H]1C5
    1, 1.1, 3.9, 0.0, -5.1
9: OC1CCCCC1N1CCC(c2ccccc2)CC1 (centres undefined)
    1, 1, 1.2, -4.5, -11.5
10: C[N+]1(C)[C@@H]2CC[C@H]1CC(OC(=O)C(CO)c1ccccc1)C2 (some centres undefined)
    1.1, 0.8, 19.4, -5.1, -14.2
11: CN1C(=O)CN=C(c2ccccc2)c2cc(Cl)ccc21
    1.1, 1, ., -8.4, -11.3
12: C=CCn1c(=O)c(C=Nc2cccc([N+](=O)[O-])c2)c(O)n(CCCC)c1=O
    1, 1, -0.4, 3.0, 0.1
13: CON(C)C(=O)Nc1ccc(Cl)cc1
    1, 1, -13.2, -2.7, -2.7

Given screen by screen: entries from further up.
#6 CCOC(=O)c1cncn1[C@H](C)c1ccccc1
#7 C[N+]1(C)C2CCC1CC(OC(=O)C(CO)c1ccccc1)C2 (centres undefined)
#8 C=CCN1CC[C@]23c4c5ccc(O)c4O[C@H]2C(=O)CC[C@@]3(O)[C@H]1C5
#9 OC1CCCCC1N1CCC(c2ccccc2)CC1 (centres undefined)
#10 C[N+]1(C)[C@@H]2CC[C@H]1CC(OC(=O)C(CO)c1ccccc1)C2 (some centres undefined)
#11 CN1C(=O)CN=C(c2ccccc2)c2cc(Cl)ccc21
#12 C=CCn1c(=O)c(C=Nc2cccc([N+](=O)[O-])c2)c(O)n(CCCC)c1=O

| Screen / compound no. | 6 | 7 | 8 | 9 | 10 | 11 | 12 |
| --- | --- | --- | --- | --- | --- | --- | --- |
| TNAP act hiacc | 1 | 1 | 1 | 1 | 1.1 | 1.1 | 1 |
| bIAP activator | 1.1 | 0.9 | 1.1 | 1 | 0.8 | 1 | 1 |
| APP 5'UTR act | . | 7.1 | 3.9 | 1.2 | 19.4 | . | -0.4 |
| TNAP inh hi DEA | -3.9 | -2.0 | 0.0 | -4.5 | -5.1 | -8.4 | 3.0 |
| TNAP inh noacc | -4.1 | -6.5 | -5.1 | -11.5 | -14.2 | -11.3 | 0.1 |

#13 CON(C)C(=O)Nc1ccc(Cl)cc1

| Screen / compound no. | 13 |
| --- | --- |
| TNAP act hiacc | 1 |
| bIAP activator | 1 |
| APP 5'UTR act | -13.2 |
| TNAP inh hi DEA | -2.7 |
| TNAP inh noacc | -2.7 |
